A1 apoptosis 2 – A1 inhibitors via caspase activation, primary screen, cell-based, luminescence, HTS, two replicates. caspase activation, % (test concentration not listed). MEF A1-2A-BIM cells, caspase-Glo luminescence, 3 h; percent of clofoctol response, DMSO zero. 24,000 tested, under 10 active; in the data active means caspase activation above about 5.9%;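 further: wells of about 30 µL received 50 nL stock; the first replicate is given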
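System: mouse embryonic fibroblasts co-expressing A1 and BIM (A1-2A-BIM), primed for A1 dependence; amount: 2500 cells/well; doses: 50 nL pinned compound; schedule: cells settled overnight, compound exposure 3 h at 37 °C, 5% CO2; detection: Caspase-Glo 3/7 luminescence, 1 h at room temperature; read-out: Caspase-3/7 activation, seen as rise in luminescence signal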
* hit, by the source's call. The list is partial; count on the stated rates, not on these rows.

Preview:
SMILES	A1 apoptosis 2
C[C@@H]1CN([C@H](C)CO)C(=O)Cc2cc(NC(=O)Cc3cn(C)c4ccccc34)ccc2O[C@H]1CN(C)Cc1ccncc1	-1.7
COc1ccc(CN(C)C[C@H]2OCCCC[C@H](C)Oc3ccc(NC(=O)CCC(F)(F)F)cc3C(=O)N([C@@H](C)CO)C[C@@H]2C)cc1	-0.7
COc1ccc(CN(C)C[C@H]2Oc3c(NC(=O)c4cc(C)nn4C)cccc3C(=O)N([C@@H](C)CO)C[C@@H]2C)cc1	0.6
C[C@@H]1CN([C@@H](C)CO)C(=O)c2cc(NS(=O)(=O)c3ccccc3)ccc2O[C@@H](C)CCCCO[C@H]1CN(C)C(=O)CCCN(C)C	-0.7
CC(C)(C)OC(=O)NC1(/C=N/NC(=O)CCCCCC(=O)Nc2ccccc2O)CCCC1	-0.3
C[C@@H]1CN([C@H](C)CO)C(=O)c2cccc(NC(=O)Nc3ccc4c(c3)OCO4)c2O[C@H]1CN(C)C(=O)Nc1ccc2c(c1)OCO2	-1.5

Results, from the start:
SMILES	A1 apoptosis 2
C[C@@H]1CN([C@H](C)CO)C(=O)Cc2cc(NC(=O)Cc3cn(C)c4ccccc34)ccc2O[C@H]1CN(C)Cc1ccncc1	-1.7
COc1ccc(CN(C)C[C@H]2OCCCC[C@H](C)Oc3ccc(NC(=O)CCC(F)(F)F)cc3C(=O)N([C@@H](C)CO)C[C@@H]2C)cc1	-0.7
COc1ccc(CN(C)C[C@H]2Oc3c(NC(=O)c4cc(C)nn4C)cccc3C(=O)N([C@@H](C)CO)C[C@@H]2C)cc1	0.6
C[C@@H]1CN([C@@H](C)CO)C(=O)c2cc(NS(=O)(=O)c3ccccc3)ccc2O[C@@H](C)CCCCO[C@H]1CN(C)C(=O)CCCN(C)C	-0.7
CC(C)(C)OC(=O)NC1(/C=N/NC(=O)CCCCCC(=O)Nc2ccccc2O)CCCC1	-0.3
C[C@@H]1CN([C@H](C)CO)C(=O)c2cccc(NC(=O)Nc3ccc4c(c3)OCO4)c2O[C@H]1CN(C)C(=O)Nc1ccc2c(c1)OCO2	-1.5
COc1ccc(NC(=O)N(C)C[C@@H]2Oc3c(NC(=O)c4nc5ccccc5s4)cccc3C(=O)N([C@H](C)CO)C[C@H]2C)cc1	-0.4
COc1ccc(NC(=O)Nc2ccc3c(c2)C(=O)N([C@@H](C)CO)C[C@@H](C)[C@H](CN(C)C(=O)C2CCCCC2)OCCCC[C@H](C)O3)cc1	0.7
C[C@H]1CN([C@@H](C)CO)C(=O)CCCn2nncc2CO[C@@H]1CN(C)C	-0.2
C[C@H]1CN([C@@H](C)CO)C(=O)Cc2cc(NS(=O)(=O)c3cn(C)cn3)ccc2O[C@H]1CN(C)Cc1ccc(C(F)(F)F)cc1	0.8
CCO[C@@H]1OC(C(=O)NC2CC2)=C[C@H](c2ccccc2)[C@H]1CCCO	-0.5
C[C@H](CO)N1C[C@H](C)[C@@H](CN(C)S(=O)(=O)c2ccc(F)cc2)OCCCC[C@H](C)Oc2ccc(NC(=O)C3CCCCC3)cc2C1=O	1.1
C[C@H](CO)N1C[C@H](C)[C@H](CN(C)C(=O)Nc2ccc(C(F)(F)F)cc2)Oc2ccc(NS(=O)(=O)c3ccccc3)cc2C1=O	0.4
C[C@H](CO)N1C[C@H](C)[C@@H](CN(C)Cc2ccc3c(c2)OCO3)Oc2c(NC(=O)c3ccncc3)cccc2C1=O	-0.2
C[C@@H]1CCCCO[C@H](CN(C)C)[C@H](C)CN([C@@H](C)CO)C(=O)c2cc(NC(=O)Nc3ccc(C(F)(F)F)cc3)ccc2O1	-0.4
COc1cccc(-c2cnc3c(c2)C(=O)N([C@H](C)CO)C[C@H](C)[C@H](CN(C)Cc2ccc(F)cc2)O3)c1	-0.5
C[C@@H]1CN([C@H](C)CO)C(=O)c2cccc(NC(=O)C3CC3)c2O[C@H]1CN(C)Cc1ccc(C(=O)O)cc1	0.4
C[C@@H]1CN([C@@H](C)CO)C(=O)c2cccc(NS(=O)(=O)c3cn(C)cn3)c2O[C@@H]1CN(C)Cc1ccc(-c2ccccc2)cc1	0.3
CC1(C)COC(CCC/C=N/NC(=O)c2cccc(C(=O)NO)c2)OC1	0.6
C[C@H](CO)N1C[C@H](C)[C@H](CN(C)S(=O)(=O)c2ccccc2F)OCc2cnnn2CCCC1=O	0.9
Cc1ccc(S(=O)(=O)Nc2ccc3c(c2)C(=O)N([C@H](C)CO)C[C@H](C)[C@@H](CN(C)Cc2ccc(C(F)(F)F)cc2)O3)cc1	-2.1
COc1ccc(/C=N/NC(=O)c2ccccc2O)cc1	-3.1
C[C@H]1CN([C@@H](C)CO)C(=O)CCCn2cc(nn2)CO[C@@H]1CN(C)C(=O)CCCN(C)C	-1.5
CCOc1cccc(/C=N/NC(=O)c2cccc(C(=O)NO)c2)c1OCC	-3.6
C[C@H]1CN([C@@H](C)CO)C(=O)Cc2cc(NC(=O)Cc3ccccc3)ccc2O[C@@H]1CN(C)S(=O)(=O)c1cccs1	-0.3
C[C@H]1CN([C@@H](C)CO)C(=O)c2cccc(NS(=O)(=O)c3ccc(Cl)cc3)c2O[C@@H]1CN(C)S(=O)(=O)c1cccs1	-0.6
C[C@@H]1CCCCO[C@@H](CN(C)S(=O)(=O)c2ccccc2)[C@@H](C)CN([C@H](C)CO)C(=O)c2cc(NC(=O)CCCCCC(=O)Nc3ccccc3N)ccc2O1	-0.6
Cc1noc(C)c1NC(=O)N(C)C[C@H]1Oc2ccc(NS(=O)(=O)c3c(C)noc3C)cc2C(=O)N([C@H](C)CO)C[C@@H]1C	-0.3
C[C@@H]1CN([C@H](C)CO)C(=O)c2cc(NC(=O)Nc3ccc4c(c3)OCO4)ccc2O[C@@H](C)CCCCO[C@H]1CN(C)C(=O)c1ccccc1	1.1
C[C@@H]1CN([C@@H](C)CO)C(=O)c2cccc(NS(=O)(=O)c3ccccc3)c2O[C@@H]1CN(C)S(=O)(=O)c1ccc(Cl)cc1	0.0
Cc1ccc(S(=O)(=O)Nc2ccc3c(c2)C(=O)N([C@@H](C)CO)C[C@@H](C)[C@H](CN(C)Cc2ccncc2)O3)cc1	0.3
CC(C)NC(=O)Nc1cccc2c1O[C@@H](CN(C)Cc1ccc(Oc3ccccc3)cc1)[C@@H](C)CN([C@H](C)CO)C2=O	0.1
C[C@@H]1CN([C@@H](C)CO)C(=O)Cc2cc(NS(=O)(=O)c3ccc(Cl)cc3)ccc2O[C@H]1CN(C)S(=O)(=O)c1cccs1	0.2
C[C@@H]1CCCCO[C@H](CN(C)C(=O)Nc2ccc(C(F)(F)F)cc2)[C@H](C)CN([C@H](C)CO)C(=O)c2cc(NS(=O)(=O)c3cccs3)ccc2O1	-0.5
COc1ccc(NC(=O)N(C)C[C@@H]2Oc3ccc(NC(=O)Nc4ccccc4)cc3C(=O)N([C@H](C)CO)C[C@H]2C)cc1	0.8
CNC[C@H]1OCCCC[C@H](C)Oc2ccc(NC(=O)c3ccncc3)cc2C(=O)N([C@H](C)CO)C[C@@H]1C	0.7
C[C@H]1CN([C@@H](C)CO)C(=O)Cc2cc(NC(=O)Cc3ccccc3)ccc2O[C@@H]1CN(C)Cc1ccccc1	-0.8
C[C@H](CO)N1C[C@H](C)[C@H](CN(C)Cc2ccccc2)OCCCC[C@H](C)Oc2ccc(NC(=O)Nc3ccc4c(c3)OCO4)cc2C1=O	0.4
C=CCNC(=O)[C@H]1[C@@H]2C(=O)O[C@@H](c3ccccc3)[C@@H](c3ccccc3)N2[C@@H](c2ccccc2OCCO)[C@]12C(=O)Nc1ccccc12	-0.9
O=C(NCc1ccccc1)C1=C[C@H](C2CC2)C[C@H](OCc2ccc(CO)cc2)O1	0.4
C[C@@H]1CCCCO[C@@H](CN(C)C(=O)Nc2ccc(C(F)(F)F)cc2)[C@H](C)CN([C@@H](C)CO)C(=O)c2cc(NS(=O)(=O)c3ccc(F)cc3)ccc2O1	0.4
COc1ccc(S(=O)(=O)Nc2ccc3c(c2)C(=O)N([C@@H](C)CO)C[C@H](C)[C@@H](CN(C)S(=O)(=O)c2ccc(F)cc2)OCCCC[C@@H](C)O3)cc1	-1.9
C[C@@H]1CN([C@@H](C)CO)C(=O)CCCn2cc(nn2)CO[C@H]1CN(C)C(=O)Nc1ccc(N2CCCCC2)cc1	0.2
C[C@@H]1CN([C@@H](C)CO)C(=O)CCCn2cc(nn2)CO[C@@H]1CN(C)S(=O)(=O)c1ccc(F)cc1	-0.3
CC(C)NC(=O)N(C)C[C@@H]1Oc2ccc(NC(=O)Nc3ccc(F)cc3)cc2CC(=O)N([C@H](C)CO)C[C@H]1C	-0.1
COc1ccc(CN(C)C[C@H]2OCCCC[C@@H](C)Oc3ccc(NC(=O)Nc4c(C)noc4C)cc3C(=O)N([C@H](C)CO)C[C@H]2C)cc1	0.9
C[C@H]1CN([C@@H](C)CO)C(=O)c2cccc(NS(=O)(=O)c3ccc(F)cc3)c2O[C@@H]1CN(C)Cc1ccc(Oc2ccccc2)cc1	-0.5
C[C@H]1CN([C@@H](C)CO)C(=O)c2cccc(NC(=O)Nc3ccc(C(F)(F)F)cc3)c2O[C@H]1CN(C)C(=O)Nc1ccc2c(c1)OCO2	-0.5
Cc1noc(C)c1NC(=O)N(C)C[C@H]1OCCCC[C@@H](C)Oc2ccc(NC(=O)CCC(F)(F)F)cc2C(=O)N([C@@H](C)CO)C[C@H]1C	1.2
C[C@@H]1CN([C@@H](C)CO)C(=O)Cc2cc(NC(=O)Cc3ccccc3)ccc2O[C@H]1CN(C)C(=O)NC1CCCCC1	0.2
Cc1ccc(S(=O)(=O)N(C)C[C@@H]2Oc3c(NC(=O)C4CC4)cccc3C(=O)N([C@H](C)CO)C[C@@H]2C)cc1	0.1
COc1ccc(NC(=O)N(C)C[C@H]2OCCCC[C@@H](C)Oc3ccc(NC(=O)CCC(F)(F)F)cc3C(=O)N([C@@H](C)CO)C[C@@H]2C)cc1	-0.2
COc1cccc(-c2cnc3c(c2)C(=O)N([C@H](C)CO)C[C@H](C)[C@H](CN(C)C(=O)Nc2ccc4c(c2)OCO4)O3)c1	0.9
C[C@@H]1CN([C@H](C)CO)C(=O)c2cc(NC(=O)CCCN(C)C)ccc2O[C@H]1CN(C)S(C)(=O)=O	1.0
CNC[C@H]1OCCCC[C@@H](C)Oc2ccc(N)cc2C(=O)N([C@H](C)CO)C[C@@H]1C	-0.8
C[C@H](CO)N1C[C@H](C)[C@@H](CN(C)Cc2ccc(Cl)c(Cl)c2)Oc2c(NS(=O)(=O)c3cn(C)cn3)cccc2C1=O	0.9
C[C@@H]1CN([C@@H](C)CO)C(=O)c2cc(NC(=O)CCCN(C)C)ccc2O[C@@H](C)CCCCO[C@H]1CN(C)C(=O)Nc1ccc2c(c1)OCO2	0.0
C[C@@H]1CN([C@H](C)CO)C(=O)c2cc(NS(=O)(=O)c3ccc(Cl)cc3)ccc2O[C@H]1CN(C)CC1CC1	0.4
Cc1noc(C)c1S(=O)(=O)N(C)C[C@H]1Oc2ccc(NS(=O)(=O)c3cccs3)cc2C(=O)N([C@@H](C)CO)C[C@H]1C	0.6
COc1ccc(NC(=O)Nc2ccc3c(c2)C(=O)N([C@H](C)CO)C[C@@H](C)[C@H](CN(C)Cc2ccccc2)OCCCC[C@H](C)O3)cc1	0.0

Next part:
SMILES	A1 apoptosis 2
C[C@@H]1CN([C@H](C)CO)C(=O)c2cc(NC(=O)c3ccncc3)ccc2O[C@@H]1CN(C)Cc1ccc(Cl)c(Cl)c1	-0.2
C[C@H](CO)N1C[C@H](C)[C@@H](CN(C)Cc2ccc(Cl)c(Cl)c2)Oc2ccc(NC(=O)C3CC3)cc2CC1=O	-0.1
C[C@@H]1CN([C@H](C)CO)C(=O)c2cc(NC(=O)NC3CCCCC3)ccc2O[C@@H](C)CCCCO[C@H]1CN(C)C(=O)Nc1ccccc1	-0.5
COc1ccc(S(=O)(=O)N(C)C[C@@H]2Oc3c(NC(=O)C4CC4)cccc3C(=O)N([C@@H](C)CO)C[C@@H]2C)cc1	-0.2
C[C@@H]1CCCCO[C@H](CN(C)Cc2ccncc2)[C@H](C)CN([C@@H](C)CO)C(=O)c2cc(N(C)C)ccc2O1	0.3
Cc1noc(C)c1NC(=O)Nc1ccc2c(c1)C(=O)N([C@H](C)CO)C[C@H](C)[C@@H](CN(C)Cc1ccc(C(F)(F)F)cc1)O2	-1.3
Cc1noc(C)c1NC(=O)Nc1ccc2c(c1)CC(=O)N([C@H](C)CO)C[C@@H](C)[C@@H](CN(C)Cc1ccccc1)O2	-1.1
CC(C)COC(=O)N(C)C[C@H]1OCc2cnnn2CCCC(=O)N([C@@H](C)CO)C[C@H]1C	-0.1
C[C@@H]1CCCCO[C@H](CN(C)S(=O)(=O)c2cccs2)[C@@H](C)CN([C@@H](C)CO)C(=O)c2cc(N(C)C)ccc2O1	-1.6
Cc1ccc(OC(=O)N(C)C[C@@H]2OCc3cn(nn3)CCCC(=O)N([C@H](C)CO)C[C@H]2C)cc1	0.4
C[C@H]1CN([C@@H](C)CO)C(=O)c2cc(NC(=O)CCCN(C)C)ccc2O[C@@H]1CN(C)Cc1ccccc1	-0.6
C[C@@H]1CN([C@@H](C)CO)C(=O)c2cc(NC(=O)Nc3ccc4c(c3)OCO4)ccc2O[C@@H](C)CCCCO[C@H]1CN(C)S(=O)(=O)c1ccccc1	1.3
Cc1noc(C)c1NC(=O)N(C)C[C@H]1Oc2c(NC(=O)NC3CCCCC3)cccc2C(=O)N([C@@H](C)CO)C[C@@H]1C	1.5
